# Rango complex inh – qHTS Assay for Inhibitors of Rango (Ran-regulated importin-beta cargo) - Importin beta complex formation | Rango CFP/YFP FRET sensor + importin beta, 45 min | Potency, µM (series often up to 92.2 µM), for inactives: at the top dose inhibition of complex formation | 340,000 compounds, 0.031% hits | Importin subunit beta-1 (Homo sapiens), Q14974; active = rising FRET ratio curve, often small or poorly fitted; inconclusive = mostly compound fluorescence or quenching in the first reads; inactive = flat curves in all reads;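 further: potency means the concentration at half of the fitted maximal effect; 0% = DMSO wells and 100% = buffer wells lacking importin beta; nearly all actives have a fitted effect of over 15% in size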
# Target sequence (Q14974 whole entry, looked up): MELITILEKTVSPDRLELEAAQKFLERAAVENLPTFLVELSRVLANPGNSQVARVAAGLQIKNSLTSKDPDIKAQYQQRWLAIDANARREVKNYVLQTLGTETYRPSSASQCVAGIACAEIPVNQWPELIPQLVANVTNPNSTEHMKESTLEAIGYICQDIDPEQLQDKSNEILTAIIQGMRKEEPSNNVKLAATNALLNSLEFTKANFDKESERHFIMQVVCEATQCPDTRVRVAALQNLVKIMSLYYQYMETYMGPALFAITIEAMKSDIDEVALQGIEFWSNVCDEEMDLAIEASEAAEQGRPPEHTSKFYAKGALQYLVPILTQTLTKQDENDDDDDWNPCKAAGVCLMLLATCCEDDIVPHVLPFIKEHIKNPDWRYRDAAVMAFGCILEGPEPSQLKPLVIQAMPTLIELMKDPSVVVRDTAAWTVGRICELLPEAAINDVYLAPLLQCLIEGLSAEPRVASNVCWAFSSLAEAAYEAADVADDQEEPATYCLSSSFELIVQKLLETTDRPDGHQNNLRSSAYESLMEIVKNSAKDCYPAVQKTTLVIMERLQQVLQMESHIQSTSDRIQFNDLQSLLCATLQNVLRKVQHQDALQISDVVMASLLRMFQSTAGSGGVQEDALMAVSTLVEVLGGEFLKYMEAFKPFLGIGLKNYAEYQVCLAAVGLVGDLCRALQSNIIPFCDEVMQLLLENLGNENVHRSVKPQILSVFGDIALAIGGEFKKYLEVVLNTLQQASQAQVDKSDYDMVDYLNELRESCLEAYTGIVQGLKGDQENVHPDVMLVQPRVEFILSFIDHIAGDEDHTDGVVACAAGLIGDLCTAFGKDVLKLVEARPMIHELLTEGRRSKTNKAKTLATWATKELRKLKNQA
#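 FRET biosensor (snurportin 1 IBB flanked by EYFP and cerulean), 50 nM, with compound 5 min, then 0.125 microM importin beta in PBS, 1 mM DTT, 0.02% Tween-20, 0.1% BSA. CFP/YFP ratio read after 45 min at room temperature; pre-read flags interference.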
# miR-21 FLuc – qHTS Assay for Modulators of miRNAs and/orActivators of miR-21; HeLa miR-21 FLuc reporter, luciferase, 48 h; Potency, µM (doses to about 38.3 µM), inactives show at the highest dose reporter change, positive = more light; 340,000 tested, under 10 active; AID 2288, 2010; active = well fitted rising curve with a large enough effect; inconclusive = small, poorly fitted or top-dose-only effect; inactive = no such curve, though single readings can be large or run the other way;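 further: % of control where 0% means no effect; miR-21 action dims this reporter so a rising signal means less miR-21 action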
#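 Using DMEM plus 10% FBS, HeLa miR-21-FLuc cells are incubated with test compounds (final up to about 40uM) for 48 hours; firefly luciferase signal is then imaged following reagent-mediated lysis.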
# Rango release inh – qHTS Assay for Inhibitors of RanGTP induced Rango (Ran-regulated importin-beta cargo) - Importin beta complex dissociation. Biochemical FRET Rango-importin beta, RanGTP-induced dissociation. Potency, µM (top dose mostly 46.1 µM), for the others: at the highest dose activity change, negative = inhibition. AID 540253, 2011. 340,000 compounds, 0.071% hits. Snurportin-1 (Homo sapiens) + GTP-binding nuclear protein Ran (Homo sapiens) + Importin …; active means falling FRET ratio curve, often poorly fitted, with flat reads before Ran was added; inconclusive means other falling curves, or compound fluorescence or quenching; inactive means flat or rising ratio curve;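 further: potency means the concentration at half of the fitted maximal effect; % of control where 0% means no effect; nearly all actives have a fitted effect of over 45% in size; -100% = wells without RanGTP and RCC1; the record marks most hits as doubtful in a second field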
#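 Recombinant Rango FRET biosensor (EYFP–snurportin 1 IBB–cerulean CFP10) at 0.1 uM premixed with 0.25 uM importin beta in PBS, 1 mM DTT, 0.02% Tween-20, 0.1% BSA. Compound added 5 min; RanGTP-RCC1 (0.6 uM Ran, 2 mM GTP, 0.2 uM RCC1) then triggers release, read at 45 min.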
# GLA inh pH 4.5 – qHTS Assay for Inhibitors of Human alpha-Galactosidase at pH 4.5; Alpha-galactosidase A (Homo sapiens), P06280; purified enzyme, 4-MU-alpha-Gal fluorescence, pH 4.5; activity change, negative = inhibition, % at 105 µM; 230,000 tested, under 10 active; inconclusive = small, poorly fitted or top-dose-only inhibition, or a rising curve; inactive = flat fitted curve, though single readings scatter; no compound was filed as active;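 further: 0% = full activity with enzyme and -100% = basal without enzyme; dose as in the result columns while the protocol names 77 µM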
# * marks the source's active call; other numbers are inactive results; ? = inconclusive; / = not tested or not shown; [ ] = another dose, or the depositor's remark.
SMILES,Rango complex inh,miR-21 FLuc,Rango release inh,GLA inh pH 4.5
O=C(O/N=C(\c1ccccc1)c1ccncc1)c1ccccc1F,-0.4%,-2%,-4%,10
O=C(CSc1nnc(NC(=O)c2ccc(F)cc2)s1)NC1CCCC1,-3.5%,-25%,-7%,/
CCn1cc(C(=O)OCC(=O)c2ccccc2)c(=O)c2ccc(C)nc21,0.4%,-10%,-6%,2
Cn1nnnc1SCC(=O)c1cccs1,-0.4%,-21%,1%,-12
Cc1ccc(S(=O)(=O)NCC(=O)OCc2ccccc2)cc1,-0.1%,6%,2%,0
CCCCCCNC(=O)CCNC(=O)c1cc(OC)c(OC)c(OC)c1,-0.5%,1%,-11%,0
CC(C)N(Cc1cn(C)nc1-c1cccc(Cl)c1)CC1CCC(=O)N1 (stereo unspecified),1.3%,1%,?,-6
Cc1cccc(Nc2ccccc2C(=O)OCC(=O)NCc2ccco2)c1C,-4.0%,-2%,-23%,3
O=C(CSc1nnc2c(n1)[nH]c1ccccc12)NC1CCCCC1,0.0%,-1%,5%,/
CCOC(=O)c1cc2c(C)n(-c3ccc(N(C)C)cc3)c(C)c2cc(C(=O)OCC)c1=O,-1.7%,-3%,1%,6
O=c1[nH]cccc1-c1nc2ccccc2n1Cc1cccc(Cl)c1,1.7%,-3%,0%,/
CN1CCCN(CC(O)COCc2cccs2)CC1 (stereo unspecified),-0.1%,-2%,1%,8
CCN1CCN(C(=O)CCc2ccc(S(=O)(=O)NCCc3ccccc3)cc2)CC1,0.2%,-3%,1%,2
Cc1c(C(=O)Nc2ccc3c(c2)OCCO3)cnn1C,0.1%,-48%,1%,/
Cc1ccc(NC(=S)NNC(=O)c2ccccc2O)c(C)c1,3.5%,-6%,?,4

# Quoted from the listing.
# In Rango complex inh, Cc1c(C(=O)Nc2ccc3c(c2)OCCO3)cnn1C reads 0.1%
# In Rango release inh, O=c1[nH]cccc1-c1nc2ccccc2n1Cc1cccc(Cl)c1 reads 0%

# (more compounds)
SMILES,Rango complex inh,miR-21 FLuc,Rango release inh,GLA inh pH 4.5
COc1ccc(-n2c(C)cc(C3=NNC(=NC4CC4)SC3)c2C)cc1,4.3%,-45%,-8%,-6
O=c1c2ccccc2c(-c2ccccc2)nn1-c1cc(Cl)ccc1[N+](=O)[O-],1.2%,-11%,1%,-16
COc1ccc(Cl)cc1NC(=O)CN(C)Cc1cccs1,0.1%,3%,-3%,/
Cc1cc(-c2ccccc2)c2c(n1)sc1c(O)cc(=O)[nH]c12,-4.7%,0%,-11%,3
CCCCCC(=O)N1CC2(CC(c3cccc(NC(=O)CC)c3)=NO2)C[C@H]1C(N)=O (stereo partly specified),4.0%,-5%,-7%,7
CC(OC(=O)C1=COCCO1)C(=O)Nc1cccc(S(=O)(=O)N2CCOCC2)c1 (stereo unspecified),-1.1%,-4%,0%,-5
COCCNC(=O)C(=O)NCC1OCCN1S(=O)(=O)c1ccc(F)cc1 (stereo unspecified),-3.0%,-3%,-2%,/
Cc1ccc(S(=O)(=O)NC(=O)c2cc(C)n(C3CC3)c2C)cc1,-6.7%,-2%,0%,2
COc1ccc(OC)c(/C=C/C(=O)OCC(=O)c2c(N)n(C)c(=O)n(C)c2=O)c1,-2.5%,-2%,-8%,-1
O=C1OC(OC2CCCCC2)(c2ccccc2)c2ccccc21 (stereo unspecified),0.7%,-3%,-4%,-21
CSCCCN1CC[C@@H](N2CCN(c3ccccc3F)CC2)[C@H](O)C1,-0.9%,0%,-8%,/
CN(C)/N=C/c1ccc(N2CCOCC2)cc1,-1.3%,-34%,2%,9
Cc1ccc(-c2ccc(CCC(=O)O)n2NC(=O)c2cccs2)cc1,?,-5%,-18%,1
CCC(C)C(NC(N)=O)C(=O)NC1CCC(C)CC1 (stereo unspecified),/,-6%,/,6
O=C(O)Cc1ccc(NC(=O)c2ccc3c(c2)C(=O)N(CC2CCCO2)C3=O)cc1 (stereo unspecified),-2.0%,-8%,-11%,/
COCCN(C(=O)COC(=O)/C=C/c1ccco1)c1c(N)n(Cc2ccccc2)c(=O)[nH]c1=O,-3.0%,0%,9%,/
Cc1cc(C)n2nc(SCC(=O)N3CCc4ccccc43)nc2n1,5.8%,-2%,34%,4
Cc1ccc(O)c(NC(=S)NC(=O)/C=C/c2ccccc2)c1,0.1%,0%,-4%,/
Cc1ccc(NC(=O)C23CCC(C)(C(=O)[C@H]2Br)C3(C)C)cc1 (stereo partly specified),1.5%,1%,-14%,-5
CCN1CCN(C(=O)c2ccc(Cl)c(S(=O)(=O)N3CCOCC3)c2)CC1,-1.5%,1%,7%,-1
O=C(COC(=O)c1ccc(Cl)c(S(=O)(=O)N2CCCC2)c1)NC1CCCCC1,-1.3%,-1%,1%,-1
CCOC(=O)CN1CC23C=CC(O2)C(C(=O)Nc2ccc(OCC)cc2)C3C1=O (stereo unspecified),0.7%,-5%,0%,-22
CC(/C=C/c1ccccc1)=N\NC(=O)c1cc(C)nc2ccccc12,-0.4%,18%,5%,-7
S=c1[nH]nc(Cc2ccc(Br)cc2)n1/N=C/c1ccc(Cl)cc1,-2.9%,-7%,0%,-14
Cc1ccc(S(=O)(=O)N2CCC(=O)N(C(COCc3ccc(Cl)cc3Cl)Cc3ccccc3)CC2)cc1 (stereo unspecified),-1.4%,-11%,12%,8
O=C(Cn1nnc2ccccc21)OCc1ccccc1,2.4%,0%,6%,2
Cc1cccc(C(=O)Nc2c3c(nn2C(C)(C)C)CS(=O)(=O)C3)c1,-0.4%,-4%,11%,/
COc1ccc(NC(=O)C2CCCCN2N)cc1OC (stereo unspecified),-1.1%,-14%,1%,-15
COCCNC(=O)CCc1nnc2ccc(N3CCC(C)CC3)nn12,0.1%,-2%,-2%,/
Cc1ccccc1Nc1ncnc2[nH]ncc12,-1.0%,/,0%,/
Cc1nc(-c2cccc(NC(=O)c3ccc(-n4cccn4)cc3)c2)cs1,6.9%,/,3%,/
CC(=O)N/C(=C\c1ccccc1)C(=O)OCC(=O)N(CC(C)C)c1c(N)n(Cc2ccccc2)c(=O)[nH]c1=O,0.5%,/,3%,/
CCOc1ccc(C(=O)NCc2ccc3c(c2)OCO3)cc1,0.9%,-19%,8%,/
CCn1c(/C=N/c2nc3ccccc3n2C)nc2ccccc21,-2.4%,-12%,1%,5
Cc1nn(C(C)C(=O)NC2CC2)c(=O)c2nn(-c3ccccc3)c(C)c12 (stereo unspecified),2.2%,1%,1%,/
CN(c1ccccc1)S(=O)(=O)c1cccc(NC(=O)c2ccc(=O)[nH]n2)c1,?,/,1%,/
COCCN1CCn2c(nc3cc(NC(=O)NC4CCCCC4)ccc32)C1,?,-10%,?,4
Cc1ccc(C(C(=O)NC2CCCCC2)N(Cc2cccnc2)C(=O)C2COc3ccccc3O2)o1 (stereo unspecified),1.2%,-25%,-25%,-5
COC(=O)C1=C(N)Oc2cc(C)[nH]c(=O)c2C1c1cc(OC)c(OC)c(OC)c1 (stereo unspecified),0.0%,-6%,14%,2
O=C(NCc1ccccn1)C1CCC(=O)N1C1CCCCC1 (stereo unspecified),0.1%,-3%,22%,-11
O=C(CN1C(=O)CCSc2ccc(S(=O)(=O)N3CCOCC3)cc21)Nc1cccc(F)c1,-0.3%,-3%,-2%,/
Cc1cc(C(=O)NC2CCCN(Cc3ccccc3F)C2)n[nH]1 (stereo unspecified),2.3%,-4%,-11%,/
O=C(CSC1=NS(=O)(=O)c2ccccc2N1)NCCc1ccccc1,-3.4%,/,-1%,/
CCN(C(=O)c1ccc(S(=O)(=O)N2CCCC2)cc1)C1CCS(=O)(=O)C1 (stereo unspecified),0.2%,/,25%,/
CCN(C1CCS(=O)(=O)C1)S(=O)(=O)c1cccs1 (stereo unspecified),-6.1%,-3%,19%,2
CCN(CC)CCN(C(=O)c1ccc2c(c1)OCCO2)c1nc2c(Cl)cccc2s1,2.3%,4%,-14%,/
O=C1c2cc(CO)cc(O)c2C(=O)c2c(O[C@@H]3OC(CO)[C@@H](O)[C@@H](O)[C@@H]3O)cccc21 (stereo partly specified),4.6%,/,12%,/
CN(C)S(=O)(=O)c1cccc(NC(=O)c2cc(-c3cccs3)nn2-c2cccc(Cl)c2)c1,2.6%,24%,7%,-1
CC(=O)c1ccc(OCc2cc(C(=O)N3CCN(C4CCCC4)C(=O)C3)no2)cc1,4.7%,/,-6%,/
CCCC(C(=O)NNC(=O)c1ccncc1)c1ccccc1 (stereo unspecified),1.2%,/,2%,/
CCOc1ccc(S(=O)(=O)Nc2ccccc2C(=O)N/N=C/c2c(OC)ccc3ccccc23)cc1,-0.1%,-12%,2%,-15
CCOc1ccc(NC(=O)CN(c2cccc(C(F)(F)F)c2)S(C)(=O)=O)cc1,1.2%,3%,-5%,-9
COc1ccc(NC(=O)c2nc[nH]c2C(=O)NCC(=O)OC(C)(C)C)cc1,0.2%,3%,-19%,-1
CCOC(=O)C1CCCN(C(=O)c2cc3ccc(OC)cc3[nH]2)C1 (stereo unspecified),-2.0%,-14%,-6%,/
CC(=O)Nc1nnc(SCC(=O)Nc2nc(C)cs2)s1,5.8%,0%,1%,/
O=C(Nc1ncn[nH]1)c1ccc(Cl)c(S(=O)(=O)N2CCCCCC2)c1,-2.5%,-6%,-13%,6
C#CCOCCOCCOCCNc1nc(N2CCN(C(=O)[C@H](CCC(=O)O)n3cc(C(N)Cc4ccc(O)cc4)nn3)CC2)nc(N2CCN(C(=O)[C@H](Cc3ccc(O)cc3)n3cc(C(N)[C@H](C)CC)nn3)CC2)n1 (stereo partly specified),/,4%,/,2
O=C(Nc1ccccc1)C1=C[C@H](C2CC2)C[C@H](OCCCCO)O1,-3.2%,-44%,?,-5
Cc1c(CCC(=O)NCC(=O)NCC(=O)O)c(=O)oc2cc3oc4c(c3cc12)CCCC4,-3.0%,1%,0%,/
N#CC1=C(SCC(=O)Nc2cccc3cccnc23)NC(=O)C(C#N)C12CCCCC2 (stereo unspecified),-0.4%,-3%,11%,-1

# New compounds follow:
SMILES,Rango complex inh,miR-21 FLuc,Rango release inh,GLA inh pH 4.5
O=C(CCCl)N1CCN(c2nc(-c3ccccc3)cs2)CC1,2.5%,-30%,-1%,/
COc1cc(C2c3c(-c4ccccc4O)n[nH]c3C(=O)N2Cc2ccco2)cc(OC)c1OC (stereo unspecified),-0.7%,-8%,26%,4
CCCn1c(N)c(C(=O)CSc2nnc(-c3cccs3)n2C2CC2)c(=O)[nH]c1=O,-0.1%,/,-13%,/
O=C(/C=C/c1cccc2ccccc12)c1ccncc1,-1.7%,?,1%,-2
COCCNC(=O)c1ccc2c(c1)ncn2-c1cccc(C)c1,1.1%,-6%,-3%,/
CCOc1ccc(S(=O)(=O)/N=C(/c2ccccc2)N(C)C)cc1,6.9%,-5%,12%,-5
CCOc1ccc(NC(=O)CN2CCN(CC(=O)Nc3ccccc3OC)CC2)cc1,-4.2%,-1%,-13%,/
CS(=O)(=O)Nc1ccc(C2=NN(C(=O)c3ccccc3)C(c3cccs3)C2)cc1 (stereo unspecified),-3.7%,-7%,11%,/
CC1(C)CC(=O)/C(=N/Nc2ccc(Cl)cc2)CO1,0.5%,-58%,0%,-3
Cc1cc(NC(=O)CSc2nnc(-c3ccncc3)n2-c2ccc(F)cc2)no1,5.0%,0%,1%,-3[21.1 µM]
COCCNC(=O)c1nn2cccnc2c1Cl,0.6%,-3%,-22%,11

# Structures listed so far with bromine (2):
SMILES,Rango complex inh,miR-21 FLuc,Rango release inh,GLA inh pH 4.5
Cc1ccc(NC(=O)C23CCC(C)(C(=O)[C@H]2Br)C3(C)C)cc1 (stereo partly specified),1.5%,1%,-14%,-5
S=c1[nH]nc(Cc2ccc(Br)cc2)n1/N=C/c1ccc(Cl)cc1,-2.9%,-7%,0%,-14

# Only part of the results is shown; rates above refer to the full screens.
